Screening data: PubChem, several laboratories
PKD1 kinase inh = inhibitors of human PKD1 kinase; inhibition, %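 (about 10 µM by stock and volumes)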; PKD1 kinase fluorescence polarization assay; actives 0.056% (n = 200,000);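 active means inhibition of 50% or more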;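 further: controls were vehicle for no effect and a reference inhibitor for full effect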
INS promoter inh = TRM-6 insulin promoter activity inhibition; actives 0.9% (n = 130,000); TRM-6 cells (human fetal islet line), insulin promoter-eGFP reporter, imaging; reporter expression induced with tamoxifen; inhibition, % at 2 µM;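 active means inhibition above the mean plus 3 SD, with well images judged a real hit on visual review, cut at about 60% in these data, passing the limit was not always enough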
HSV augment = increases HSV replication in cells | maximum fold increase | AID 1956 | actives 0.005% (n = 220,000) | HSV replication augmentation in cells, fold increase;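 active means peak rise of 1.5-fold or more in the series; tested in PC3 cells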;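 further: first round at 10 µM; read as green reporter fluorescence; hits show the peak of a series up to 25 µM; 1 = signal of infected wells without compound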
GALR2 agonist = GALR2 (human) receptor agonism; O43603; GALR2-expressing cells, agonist activation read-out; activation, %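 (tested at 5 µM)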; actives 0.48% (n = 140,000); AID 803;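 active means above mean plus 3 SD of all compounds, about 5% in these data, not always enough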;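 further: 0% = vehicle buffer wells and 100% = reference agonist at full effect; tested in CHO reporter cells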
Target sequence (O43603 whole entry, looked up): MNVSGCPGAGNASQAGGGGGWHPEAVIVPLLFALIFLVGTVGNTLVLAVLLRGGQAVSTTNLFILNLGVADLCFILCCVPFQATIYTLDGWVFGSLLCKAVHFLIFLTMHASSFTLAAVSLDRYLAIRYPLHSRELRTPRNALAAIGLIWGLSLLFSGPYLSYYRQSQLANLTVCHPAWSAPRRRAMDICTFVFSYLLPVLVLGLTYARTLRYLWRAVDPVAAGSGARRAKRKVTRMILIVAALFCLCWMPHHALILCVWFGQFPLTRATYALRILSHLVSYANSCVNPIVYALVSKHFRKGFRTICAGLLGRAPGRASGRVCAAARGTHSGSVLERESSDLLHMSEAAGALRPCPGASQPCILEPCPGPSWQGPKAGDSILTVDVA
RGS16-Gao = RGS16-Galphao interaction regulator (human); bead-based flow cytometry RGS16-Galphao binding, fluorescence; actives lie on both sides; AID 1441; binding response (% of control), % at 10 µM; O15492+P09471; actives 0.38% (n = 220,000);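 active means below 25% or above 175%, edge rows of some plates excepted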;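 further: Galphao activated by GDP with aluminum fluoride before binding; 100% = wells without compound and 0% = beads without RGS; some results beyond the cut were filed as inactive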
Target sequence (O15492 whole entry, looked up): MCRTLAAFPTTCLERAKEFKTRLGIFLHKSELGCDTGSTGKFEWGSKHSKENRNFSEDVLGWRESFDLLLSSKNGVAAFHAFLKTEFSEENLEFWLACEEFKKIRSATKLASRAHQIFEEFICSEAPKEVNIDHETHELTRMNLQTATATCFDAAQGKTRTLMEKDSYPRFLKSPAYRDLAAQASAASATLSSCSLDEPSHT
Target sequence (P09471 whole entry, looked up): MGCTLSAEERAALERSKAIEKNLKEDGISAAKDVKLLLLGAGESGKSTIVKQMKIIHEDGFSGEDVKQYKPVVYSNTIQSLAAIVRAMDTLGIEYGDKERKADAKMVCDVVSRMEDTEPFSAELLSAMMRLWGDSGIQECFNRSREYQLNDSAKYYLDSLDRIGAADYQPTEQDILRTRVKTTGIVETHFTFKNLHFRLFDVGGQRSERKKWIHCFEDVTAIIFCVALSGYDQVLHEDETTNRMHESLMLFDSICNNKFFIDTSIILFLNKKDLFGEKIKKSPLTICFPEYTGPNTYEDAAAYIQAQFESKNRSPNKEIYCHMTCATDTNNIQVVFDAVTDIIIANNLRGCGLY
INS promoter inh cell count = second read-out of INS promoter inh, no call of its own (marks repeat the call); normalized cell count, %; measured here: cell count, toxicity; reference of the scale not given here;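 cells exposed to compound for 48 h; stained nuclei by imaging scaled within each plate; lower means fewer cells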
HSV augment primary fold = also measured in HSV augment; calls as there; fold increase; compound at 10 µM; measured here: primary screen fold increase 10 uM; tested in PC3 cells;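 GFP signal in the first replicate; 1 = infected wells without compound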
Numbers without * were called inactive; i = inactive; / = not tested or not shown.

SMILES	PKD1 kinase inh	INS promoter inh	INS promoter inh cell count	HSV augment	HSV augment primary fold	GALR2 agonist	RGS16-Gao
COc1cccc(N(CC(=O)NCCSc2ccccn2)S(C)(=O)=O)c1	-5	4	123	i	0.9	-1.9	108
COc1ccc2nc(NC(=O)C(NS(=O)(=O)c3cccc4nsnc34)C(C)C)sc2c1 (stereo not given)	-13	/	/	/	/	-0.8	104
C/C(Cc1ccccc1)=N\NC(=O)c1ccc(F)cc1	-7	6	106	i	1	0.0	102
COc1ccc(C2CC(c3ccccc3)=NN2c2ccc(S(N)(=O)=O)cc2)cc1OC (stereo not given)	1	7	87	i	0.9	/	101
O=C(CSc1nnc(-c2ccc(S(=O)(=O)N3CCCC3)cc2)n1CC1CCCO1)NC1CC1 (stereo not given)	0	-36	79	i	0.93	-1.1	103
CC(=O)Oc1cccc(N2C(=O)c3ccc(C(=O)Nc4cccnc4)cc3C2=O)c1	-6	-29	125	i	0.95	/	99
CN(Cc1ccccc1)C(=O)c1ccccc1NC(=O)C1CC1	2	-11	86	i	1	/	97
CC(=O)c1ccc(N2Cc3ccccc3/C2=N\C(=O)Nc2ccccc2)cc1	-5	/	/	i	1.4	-1.2	101
O=Cc1cccn1-c1ncc(Br)cn1	-7	7	95	i	0.86	/	103
CCn1cc(C(=O)N2CCCC2)c(=O)c2cc(S(=O)(=O)N(C)C)ccc21	-7	/	/	i	0.83	-2.1	99
Cc1ccc(N2CN(Cc3cccnc3)CNC2=S)c(C)c1	-10	/	/	i	1.1	-1.5	84
O=C1CC(C(=O)Nc2ccc(Cl)c(Cl)c2)S/C(=N\N=C\c2ccco2)N1 (stereo not given)	/	/	/	i	0.88	/	101
COc1ccccc1C1CCN(C(=O)c2cccs2)CC1	/	/	/	i	1.2	/	103
O=C(CN(c1cccc(C(F)(F)F)c1)S(=O)(=O)c1ccc(Cl)c([N+](=O)[O-])c1)NCc1ccccc1	-7	3	113	i	0.63	0.3	107
CCOc1ccccc1NC(=O)Cn1c(=O)n(-c2ccc(OC)cc2OC)c(=O)c2c(C)c(C(=O)N(CC)CC)sc21	-5	-7	129	i	0.95	/	102
CC(=O)OC1CC(C)(C)N(OC(=O)c2ccc(N)cc2)C(C)(C)C1	3	36	118	i	1	-3.4	100
CCOC(=O)c1[nH]c(C)c(CCC(=O)OC)c1C	-5	15	143	i	0.87	-1.8	105
CCn1c(=O)c(C(=O)CN2CCOCC2)c(N)n(Cc2ccccc2)c1=O	-7	10	135	i	0.9	-3.1	91
COc1ccccc1NC(=O)N(Cc1ccco1)Cc1cc2cc(C)cc(C)c2[nH]c1=O	-14	-6	47	i	0.89	-0.8	108
Cc1nc2ccc(S(=O)(=O)NCC(=O)N(C)Cc3ccco3)cc2s1	-2	14	93	i	1	-1.9	97
Cc1cccc(Nc2ncnc3ccccc23)c1	8	47	143	i	0.96	-1.7	82
N#CCc1ccc(Oc2ncc(C(F)(F)F)cc2Cl)cc1	-4	/	/	i	0.97	/	108
CCC(=O)Nc1ccc(S(=O)(=O)Nc2cccnc2)cc1	-3	25	196	i	1.1	-1.3	95
COc1cccc(-c2cnc(NCc3cc(Cl)ccc3O)n2C)c1	4	/	/	i	0.87	-0.2	145
CCCn1c(N2CCN(Cc3cccc(C)c3)CC2)nc2c1c(=O)[nH]c(=O)n2C	7	/	/	i	0.85	-0.2	98
CN1c2ccsc2C(O)=C(C(=O)Nc2ccccc2)S1(=O)=O	-5	/	/	i	0.72	-3.0	104
CC1=C(C(=O)Nc2cccnc2)C(c2ccncc2)n2nnnc2N1 (stereo not given)	6	11	102	i	0.98	0.5	100
CCN1CC(O)=C(c2nc3ccccc3s2)C1=N	6	-11	86	i	0.96	-2.2	99
COc1ccc(CNC(=S)NC2CCCC2)cc1	-3	/	/	i	1.2	-0.3	102
COC(=O)CSc1nn(-c2ccc(F)cc2)c(=S)s1	1	-32	110	i	0.99	/	105
Cc1nn(Cc2ccc(Cl)cc2Cl)c(C)c1NC(=O)c1ccc(COc2cc(Cl)ccc2Cl)o1	-5	-3	86	i	0.9	-1.9	106
CCCn1c(SCC(=O)c2c(C)[nH]c(C)c2C(=O)OCC)nc2ccccc21	-3	3	82	i	0.98	-0.6	152
COc1ccc(/C=N/NS(=O)(=O)c2ccccc2)cc1OS(=O)(=O)c1ccc(C)cc1	10	7	110	i	0.89	-2.3	98
CCCc1cc(=O)oc2c(CN3CCN(C)CC3)c(O)c(Cl)cc12	/	/	/	i	0.96	/	97
O=C(/C=C/c1ccc(Cl)cc1)N1CCN(c2ccc(Cl)cc2[N+](=O)[O-])CC1	5	-29	107	i	0.97	-0.9	115
O=[N+]([O-])C(=C1NCCN1)C(Cl)=C(Cl)Cl	-3	/	/	i	1	/	100
O=C(COC(=O)c1ccccc1Br)NCc1ccccc1	-12	-41	44	i	1	-0.3	105
CCOC(=O)c1cc(-c2ccncc2)nc2c1c(C)nn2C	-9	50	162	i	0.88	1.9	103
Oc1ccc(/C=N/Nc2ncnc3nc[nH]c23)cc1	/	/	/	i	0.93	/	33
COc1ccc(-c2csc(NC(=O)CSc3nc(C)nc4sc(C(=O)O)c(C)c34)n2)cc1	/	/	/	i	0.91	/	112
CS(=O)(=O)N(CC(=O)N1CCC(C(N)=O)CC1)c1cc(C(F)(F)F)ccc1Cl	-1	/	/	i	1	/	113
Cn1c(-c2ccc(Br)cc2)cnc1NCc1cccnc1	-7	51	117	i	0.93	-1.1	260
Cc1cc(C)c(S(C)(=O)=O)c(Sc2ccc(Cl)cc2)n1	-2	-32	135	i	0.92	-3.6	101
COc1ccccc1S(=O)(=O)Cc1ccc(C(=O)N2CCN(c3ccccc3)CC2)o1	5	/	/	i	0.83	-1.4	101
COC(=O)Cc1c(C)c2c(O)cc(C)cc2oc1=O	-6	/	/	i	1	-1.1	101
CCOc1ccc(CC(=O)NNC(=S)NCCc2ccccc2)cc1	-3	/	/	i	0.98	/	101
CCC1SC2=NC(C)=C(C(=O)OC)C(c3cccs3)N2C1=O (stereo not given)	5	/	/	/	/	-1.6	101
Cc1c(/C=C/C(=O)c2ccc(O)cc2)cnn1C	2	/	/	i	0.89	-0.8	104

One compound at a time (already shown).
COc1ccc(/C=N/NS(=O)(=O)c2ccccc2)cc1OS(=O)(=O)c1ccc(C)cc1 is listed as PKD1 kinase inh: 10; INS promoter inh: 7; INS promoter inh cell count: 110; HSV augment: i; HSV augment primary fold: 0.89; GALR2 agonist: -2.3; RGS16-Gao: 98
CCC1SC2=NC(C)=C(C(=O)OC)C(c3cccs3)N2C1=O (stereo not given) is listed as PKD1 kinase inh: 5; INS promoter inh: /; INS promoter inh cell count: /; HSV augment: /; HSV augment primary fold: /; GALR2 agonist: -1.6; RGS16-Gao: 101
COc1ccccc1S(=O)(=O)Cc1ccc(C(=O)N2CCN(c3ccccc3)CC2)o1 is listed as PKD1 kinase inh: 5; INS promoter inh: /; INS promoter inh cell count: /; HSV augment: i; HSV augment primary fold: 0.83; GALR2 agonist: -1.4; RGS16-Gao: 101

Additional structures.
SMILES	PKD1 kinase inh	INS promoter inh	INS promoter inh cell count	HSV augment	HSV augment primary fold	GALR2 agonist	RGS16-Gao
O=C(O)c1ccccc1CSc1nc2ccccc2o1	-10	34	55	i	0.98	-1.7	94
CSc1ccc(CN2CCN(Cc3ccccc3)C(CCO)C2)cc1 (stereo not given)	1	/	/	i	1	/	89
Cc1ccc(C(=O)NCc2ccccn2)cc1Cl	-4	/	/	i	0.98	/	100
Cc1ccccc1S(=O)(=O)Cc1ccc(C(=O)NCCN2CCN(Cc3ccccc3)CC2)o1	-5	/	/	i	0.93	-0.7	167
Clc1ccc(-c2nc(NCCCN3CCOCC3)c3ccccc3n2)cc1	/	/	/	i	0.68	/	107
COC(=O)COc1ccc2c(=O)c(-c3ccccc3OC)coc2c1	4	-15	131	i	1	/	100
Cc1cc(C)n(-c2cc(N3CCN(S(=O)(=O)c4ccc(C)c(C)c4)CC3)ccc2[N+](=O)[O-])n1	5	-23	155	i	0.97	-1.1	97
O=[N+]([O-])c1ccc(N2CCOCC2)cn1	-5	/	/	i	0.92	/	100
O=C(N/N=C/c1ccc2c(c1)OCO2)c1cc2ccccc2o1	/	/	/	i	1	/	113
CCC(C)[C@H]1CNC(=S)N1CCc1cccc2ccccc12 (stereo not given in full)	/	/	/	i	0.77	/	102
COc1ccc(C2CC(c3ccccc3)=NN2C(=O)c2ccc(Cl)c([N+](=O)[O-])c2)cc1 (stereo not given)	-8	-55	110	i	0.66	5.0*	114
COc1ccc(C2NCCO2)cc1OC (stereo not given)	6	/	/	i	1.1	-1.6	98
COc1cccc(CN(C)CC(=O)Nc2cc3oc4ccccc4c3cc2OC)c1	4	3	106	i	0.89	-1.4	115
O=C(CCn1cnc2ccccc2c1=O)Nc1ccc(Cl)c(Cl)c1	-5	-9	92	i	0.84	-1.6	103
CC(C)(C)NC(=O)C(c1ccc(F)cc1)N(Cc1ccco1)C(=O)c1csnn1 (stereo not given)	1	/	/	i	0.94	-0.9	109
CC12CC(NC(=O)N1c1cccc(C(=O)Nc3ncn[nH]3)c1)c1ccccc1O2 (stereo not given)	1	-7	31	i	0.91	-2.6	102
CCCN(C(=O)CCl)C1=CCCCC1	-2	/	/	i	1.1	/	88
Cc1cc(C(=O)NN)n[nH]1	/	/	/	i	0.98	/	96
O=[N+]([O-])c1ccccc1/C=C/C=N/n1c(-c2ccccc2F)n[nH]c1=S	/	/	/	i	0.97	/	94
Cc1cc(C)cc(N(C(=O)Cc2cccs2)C(C(=O)NC2CCCCC2)c2ccccn2)c1 (stereo not given)	-2	-17	137	i	1	-1.6	95
CC(C)Cn1c(N)c(C(=O)COC(=O)c2ccccc2Cl)c(=O)n(C)c1=O	1	-50	107	i	0.84	/	98
Cc1ccc(NC(=S)c2nc3ccccc3[nH]2)cc1	-1	81*	133*	i	1	-2.5	111
CC(=O)Nc1ccc(Sc2ncccc2C(=O)Nc2ccc(OC(F)(F)F)cc2)cn1	-7	-40	56	i	0.97	22*	96
CC(=O)N1CCC(N(CCN2CCOCC2)C(=S)Nc2cccc(C)c2)CC1	6	13	52	i	0.93	-2.6	46
Cc1cccc(NCc2nc3ccccc3n2Cc2ccccc2)c1	-4	-38	41	i	0.99	-1.4	95
COc1cccc(OCCn2cc(/C=N/NC(=O)c3ccncc3)c3ccccc32)c1	1	37	103	i	0.94	1.7	107
O=c1[nH]c2cc(Cl)c([N+](=O)[O-])nc2[nH]1	5	/	/	i	1	-0.3	105
CN(Cc1ccccc1)C(=O)c1nc2ccccn2c1CN1CCCC1c1nccs1 (stereo not given)	4	/	/	i	0.96	/	96
COC(=O)c1cc2c(ccn2-c2ccc(F)cc2)n1C(C)C	-6	-69	148	i	0.96	1.9	102
CCOc1cccc(CNc2ccc(O)cc2)c1OCc1ccc(Cl)cc1Cl	4	-91	85	/	/	-1.0	87
CC(C)(C#N)Nn1cnnc1	-4	-288	28	i	0.95	-4.4	111
O=c1c2ccccc2c(-c2ccc(F)cc2)nn1-c1ccc(C(F)(F)F)cc1	-18	58	97	i	0.97	-3.3	100
COc1cc(CNc2ccc3c(c2)OCCO3)ccc1OCC(N)=O	1	14	83	i	0.88	/	101
Cn1nnnc1SCc1cc(=O)[nH]c2ccccc12	-9	-14	94	i	1	-1.1	96
Cc1ccc2[nH]c(C)c(CCNC(=O)c3cc4cc([N+](=O)[O-])ccc4oc3=O)c2c1	1	30	117	i	0.9	-0.8	101
O=C(CN1C(=O)c2ccccc2C1=O)OCCOCCN=C1NS(=O)(=O)c2ccccc21	1	28	103	i	0.92	/	113

A run of entries from further up:
SMILES	PKD1 kinase inh	INS promoter inh	INS promoter inh cell count	HSV augment	HSV augment primary fold	GALR2 agonist	RGS16-Gao
Cc1cccc(NCc2nc3ccccc3n2Cc2ccccc2)c1	-4	-38	41	i	0.99	-1.4	95
COc1cccc(OCCn2cc(/C=N/NC(=O)c3ccncc3)c3ccccc32)c1	1	37	103	i	0.94	1.7	107

The list continues.
SMILES	PKD1 kinase inh	INS promoter inh	INS promoter inh cell count	HSV augment	HSV augment primary fold	GALR2 agonist	RGS16-Gao
CCOC(=O)CC(N)c1ccc(OC)cc1 (stereo not given)	-6	-14	125	i	1	-3.0	98
COCCNC(=O)CSc1nc2c(n1-c1ccccc1)CCCC2	3	11	114	i	1	-1.8	101
Cc1ccc(-n2c(C)cc(/C=N/NC(=O)CC3(C)OCCO3)c2C)c(C)c1	-11	-227	147	i	1.1	-2.6	125
COC(=O)c1ccc(COc2ccccc2/C=N/NC(=O)c2cccnc2)cc1	-1	/	/	i	1	/	100
Cc1cc(=O)cc(C)n1-c1ccc(Br)cc1	1	/	/	i	0.95	/	97
COc1ccc(NC(=S)N(CCCN2CCCCCC2)Cc2cccs2)cc1	-4	-7	88	i	0.99	/	101
O=C(Nc1ccc(-c2nnc3n2CCCCC3)cc1)c1ccco1	-5	/	/	i	1.1	-0.3	87
